HNF4A DNA FP: change in binding of human HNF4 alpha to DNA; P41235; HNF4a-FITC DNA binding, fluorescence polarization, 1 h; activity change, % at 10 µM; actives 0.3% (n = 360,000); in the data active means activity change above about 30%, passing the limit was not always enough;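 further: controls were the assay level and a saturating level of protein; the project sought stronger binding though the title names inhibitors; some compounds called inactive have numbers as strong as hits; positive values seem to mean higher polarization but the record does not say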
Ecoli rRNA inh: inhibitors of bacterial rRNA selective over humanized ribosomes; E. coli WT GFP vs humanized-ribosome RFP mutants, fluorescence, 24 h; hits give low values; DMSO median 0, no signal -100; GFP signal change (wild-type ribosome), % (concentration not given with the values); actives 1.6% (n = 350,000);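 active means significant combined selectivity score with lowered wild-type GFP, culture density cut under 30%, mutant RFP and density less affected; inactive means any of these conditions unmet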; further: one replicate is shown; some compounds called inactive have numbers as strong as hits
UCH37 DUB inh: inhibitors of human deubiquitinating enzyme UCH37 | Q9Y5K5 | purified proteasome/UCH37, Ub-AMC cleavage fluorescence | inhibition, % (test concentration not listed) | actives 0.33% (n = 330,000) | AID 588478;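 active means mean of two replicates above 20%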;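 further: 0% = compound-free wells with enzyme and 100% = wells lacking proteasome; stock transfer was 100 nL into about 20 µL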
Target sequence (Q9Y5K5 whole entry, looked up): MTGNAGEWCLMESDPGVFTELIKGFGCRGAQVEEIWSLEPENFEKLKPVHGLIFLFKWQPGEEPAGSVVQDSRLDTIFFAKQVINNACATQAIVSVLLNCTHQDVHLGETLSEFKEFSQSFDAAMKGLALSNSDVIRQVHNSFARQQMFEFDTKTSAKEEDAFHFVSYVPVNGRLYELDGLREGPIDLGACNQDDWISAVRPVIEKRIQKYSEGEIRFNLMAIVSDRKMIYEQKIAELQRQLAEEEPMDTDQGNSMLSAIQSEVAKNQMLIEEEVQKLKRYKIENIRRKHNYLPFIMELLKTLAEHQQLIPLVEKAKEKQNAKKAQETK
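assay system = human UCH37 enzyme supplied as purified proteasome complex | amount = proteasome at 0.15 nM in the dispensed enzyme solution | schedule = 30 min compound-proteasome preincubation then 25 min substrate reaction, room temperature | measured by = fluorescence, ex 355 nm, em 460 nm | benchmarks = no-proteasome wells (full inhibition) and compound-free wells (no inhibition)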
FGF22 binding: FGF22 (human) thermal shift binding. recombinant FGF22 thermal shift, SYPRO orange fluorescence; percent of sucrose octasulfate shift, DMSO zero. calls only at 9.99 µM. actives 1.5% (n = 340,000). Q9HCT0;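 active means melting point raised past a set limit in the mean and every replicate; three in four hits are not shown here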
Target sequence (Q9HCT0 whole entry, looked up): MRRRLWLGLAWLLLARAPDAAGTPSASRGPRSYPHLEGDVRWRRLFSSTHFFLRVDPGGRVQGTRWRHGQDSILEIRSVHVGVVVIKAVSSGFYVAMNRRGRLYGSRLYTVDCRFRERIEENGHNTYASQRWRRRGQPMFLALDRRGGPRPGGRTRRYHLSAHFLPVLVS
E coli growth: blocks Escherichia coli growth; OD600, 23 h; hits give low values; OD600 absorbance (no concentration beside the values); actives 0.21% (n = 330,000); AID 1053175;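 active means OD600 absorbance below the run mean of sample wells minus 3.6 SD, in any replicate, cut at about 0.56 in these data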;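 further: stock transfer was 300 nL into about 60 µL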
ALR inh: human ALR oxidase inhibition via reduced H2O2; inhibition, % (concentration not given with the values); purified ALR, DTT oxidation, H2O2 HRP-luminol luminescence; actives 3.8% (n = 290,000); P55789;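 active means mean and each replicate at 75% or more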;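 further: stock transfer was 7.5 nL into about 7.5 µL; 0% = neutral wells and 100% = wells with inactivated enzyme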
Beta2AR agonist: agonists of human beta-2 adrenergic receptor inducing internalization; P07550; Am2.2-beta2AR cells, FAP receptor internalization, flow cytometry; reference of the scale not given here; response, % (concentration not given with the values); actives 0.43% (n = 340,000); AID 504454;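 active means response above a set limit, near 3 SD of response in nonfluorescent compounds, cut at about 42% in these data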;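 further: stock transfer was 100 nL into about 11 µL; a reference agonist was the positive control; negative values mostly stem from fluorescent compounds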
Target sequence (P07550 whole entry, looked up): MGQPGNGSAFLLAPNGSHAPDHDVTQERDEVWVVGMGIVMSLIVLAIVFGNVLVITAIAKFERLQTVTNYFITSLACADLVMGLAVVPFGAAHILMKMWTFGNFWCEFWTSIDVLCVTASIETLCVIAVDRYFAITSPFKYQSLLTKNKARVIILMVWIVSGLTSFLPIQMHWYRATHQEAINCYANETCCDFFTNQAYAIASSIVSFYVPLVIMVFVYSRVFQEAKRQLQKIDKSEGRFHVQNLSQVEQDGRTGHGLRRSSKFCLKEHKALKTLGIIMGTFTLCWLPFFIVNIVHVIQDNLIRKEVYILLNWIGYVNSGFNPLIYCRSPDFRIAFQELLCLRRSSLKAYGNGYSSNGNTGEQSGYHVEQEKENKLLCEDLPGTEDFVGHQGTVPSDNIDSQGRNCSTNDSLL
Ecoli rRNA inh OD600: recorded beside Ecoli rRNA inh, whose call it bears; OD600 change, %; measured here: OD600 growth;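 optical density of the mix in the first replicate; 0 = DMSO median and -100 = no signal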
Ecoli rRNA inh RFP: second read-out of Ecoli rRNA inh, no call of its own (marks repeat the call); RFP signal change, %; measured here: RFP humanized mutant strains;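 first replicate; 0 = DMSO median and -100 = no signal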
An asterisk follows results filed as active; i = inactive; / = not tested or not shown. This is a subset (hit frequency here may not be typical).

No.	Structure	HNF4A DNA FP	Ecoli rRNA inh	Ecoli rRNA inh OD600	Ecoli rRNA inh RFP	UCH37 DUB inh	FGF22 binding	E coli growth	ALR inh	Beta2AR agonist
1	CC1(c2nnc(Cc3ccccc3)o2)CC(c2ccc(Cl)cc2)=NO1 (stereo unspecified)	-1.5	-21	-19	-11	28*	i	0.66	/	2
2	Cc1sc2ncn(CC(=O)NCCCC(=O)Nc3ccc(C(C)C)cc3)c(=O)c2c1C	-2.0	1	11	-4.1	4.5	i	0.62	-4	-13
3	Cc1cccc(C(P(=O)(c2ccccc2)c2ccccc2)P(=O)(c2ccccc2)c2ccccc2)n1	-0.6	/	/	/	3.6	/	0.72	0	-1
4	CC(C)Cn1c2c(c(=O)[nH]c1=O)C(NS(=O)(=O)c1ccc(Cl)cc1)(C(F)(F)F)C(=O)N2 (stereo unspecified)	3.0	4	12	17	5.0	i	0.7	1	-1
5	Cn1c(SCC(=O)Nc2ncc(C(F)(F)F)cc2Cl)nnc1-c1ccc(Cl)cc1	1.9	3	-4	-0.3	-0.1	i	0.68	-1	1
6	CSc1ccccc1NC(=O)N1CCC(CO)(CC2CCCCO2)CC1 (stereo unspecified)	-0.5	3	0	0.0	2.6	i	0.74	-22	7
7	Cc1ccccc1-c1nnc(CN2CCN(C(=O)c3ccco3)CC2)o1	-0.8	4	0	-1.1	1.9	i	0.67	3	-3
8	COc1ccc(C(=O)C=Cc2ccc(OCc3ccccc3)c(OC)c2)cc1OC	-10	12	18	14	/	i	/	/	/
9	Cc1cc(C)c(NC(=O)CN(C)C(=O)C2CC(=O)N(c3cccc4ccccc34)C2)c(C)c1 (stereo unspecified)	0.9	5	10	-0.8	1.9	i	0.65	/	-3
10	CCOc1nsc(OCC)n1	1.5	5	6	-1.4	2.0	i	0.64	-5	-7
11	Cc1ccc(S(=O)(=O)/N=C2/NC(=O)/C(=C/c3ccccn3)S2)cc1	-3.9	-1	-12	-0.4	12	/	0.66	11	3
12	CN1CCN(CC(=O)NN(Cc2ccccc2)c2ccccc2)CC1	-0.7	20	12	0.3	1.3	i	0.68	9	-4

Compound profiles, as listed above:
CN1CCN(CC(=O)NN(Cc2ccccc2)c2ccccc2)CC1 reads HNF4A DNA FP: -0.7; Ecoli rRNA inh: 20; Ecoli rRNA inh OD600: 12; Ecoli rRNA inh RFP: 0.3; UCH37 DUB inh: 1.3; FGF22 binding: i; E coli growth: 0.68; ALR inh: 9; Beta2AR agonist: -4
Cc1cc(C)c(NC(=O)CN(C)C(=O)C2CC(=O)N(c3cccc4ccccc34)C2)c(C)c1 (stereo unspecified) reads HNF4A DNA FP: 0.9; Ecoli rRNA inh: 5; Ecoli rRNA inh OD600: 10; Ecoli rRNA inh RFP: -0.8; UCH37 DUB inh: 1.9; FGF22 binding: i; E coli growth: 0.65; ALR inh: /; Beta2AR agonist: -3

Next section
No.	Structure	HNF4A DNA FP	Ecoli rRNA inh	Ecoli rRNA inh OD600	Ecoli rRNA inh RFP	UCH37 DUB inh	FGF22 binding	E coli growth	ALR inh	Beta2AR agonist
13	CC(C)(CO)Cc1cc(C(C)(C)C)c(O)c(C(C)(C)C)c1	0.2	/	/	/	1.8	i	0.72	-10	3
14	CCN(CC(=O)NCc1ccc(Cl)cc1)C(=O)CNS(=O)(=O)c1ccc(NC(C)=O)cc1	1.7	6	0	2.8	2.0	i	0.71	73	-1
15	O=C(CSc1nnc(-c2ccncc2)n1CC1CCCO1)Nc1cccc(O)c1 (stereo unspecified)	-1.0	/	/	/	1.2	/	0.7	/	0
16	C/C=C(\C)C(=O)NCCN1C2=NC[C@H](C(C)C)N2C[C@H]1Cc1ccc(O)cc1	-0.7	9	7	0.6	0.6	i	/	1	-1
17	O=C(NC1CCCCC1)c1ccc2[nH]c(=O)c(=O)[nH]c2c1	1.6	1	2	0.3	-88	i	0.7	-1	-1
18	Cc1ccc(NC2CCCCC2NS(=O)(=O)c2ccc(Cl)cc2)cc1 (stereo unspecified)	4.9	6	4	-2.7	3.8	i	0.69	73	9
19	O=C(NCc1ccccc1)[C@@H]1CCCN1C(=O)[C@@H]1CCCN1C(=O)c1cccc2ccccc12	3.2	-3	0	1.2	/	i	/	/	/
20	COCc1ccc(C(=O)NC2CCCc3c2cnn3-c2cc(C)cc(C)c2)s1 (stereo unspecified)	2.2	-27	-30	-0.7	2.1	i	0.68	/	-3
21	O=C(NCc1ccc2c(c1)OCO2)c1cc2ccccc2o1	0.3	/	/	/	2.3	/	0.7	4	0
22	O=C(c1ccco1)N1N=C(C2CCCCC2)CC1(O)C(F)(F)F (stereo unspecified)	-2.3	-25	-32	-4.2	5.5	i	0.7	-2	1
23	CNC(=O)Nc1ccccc1NC(=O)NC	-2.0	/	/	/	1.5	/	0.72	-22	-3
24	COc1ccc2oc(C(=O)OCC(=O)NC(C)(C#N)C3CC3)c(C)c2c1 (stereo unspecified)	4.0	-17	-20	0.6	-38	i	0.68	/	2
25	COc1cc(/C=C2\SC(c3ccc(C)cc3)=NC2=O)cc(OC)c1O	32	3	2	-2.2	6.7	i	0.71	10	-5
26	CCN(CC)c1cc(C(F)(F)F)nc(-c2ccccn2)n1	4.4	/	/	/	-3.5	/	0.71	0	-4
27	COc1cccc(-c2ccc(SCc3ccccn3)nn2)c1	-0.5	-23*	-15*	-3.0*	4.2	i	0.68	-3	-2
28	Cc1cc[n+](-c2[nH]c(=O)sc2/C=N/N=C(\[O-])c2ccccc2)cc1	-8.6	-1	11	-4.9	/	i	/	/	-1
29	O=C(Nc1nnc(C2CCCC2)s1)C1CCN(S(=O)(=O)c2ccc(Cl)cc2)CC1	-0.9	-4	-5	-5.0	7.0	i	0.72	-1	-4
30	O=C(O)c1ccc(Br)cn1	-0.2	17	14	1.2	3.3	i	0.69	-7	-5
31	Cc1c(CCC(=O)NC2CC2)c(=O)oc2c(C)c(O)ccc12	-1.4	/	/	/	-478	/	0.7	/	-7
32	COc1ccc(OC)c(-c2csc(NC(=O)COC(=O)C3(C)CC3(Cl)Cl)n2)c1 (stereo unspecified)	4.0	-21*	-7.7*	5.0*	4.0	i	0.74	-2	8
33	Cc1cccc(NC(=O)NC2CCCCCCC2)c1C	-1.8	9	14	4.1	-2.0	i	0.71	-14	-4
34	Cc1ccc(S(C)(=O)=O)cc1C(=O)Nc1ccc(S(=O)(=O)Nc2nccs2)cc1	7.6	9	10	0.6	3.0	i	0.67	97*	-4
35	Cc1ccc(-n2nc3c(N4CCC(C(=O)NCc5ccccc5C)CC4)nnc(C)c3c2C)cc1	17	/	/	/	-24	/	0.67	/	16
36	CC1CCCCN1C(=O)c1cc2c(=O)n3ccccc3nc2s1 (stereo unspecified)	-2.0	-2	-2	1.6	i	i	0.69	/	-15

A run of entries from the list above, for reference:
No.	Structure	HNF4A DNA FP	Ecoli rRNA inh	Ecoli rRNA inh OD600	Ecoli rRNA inh RFP	UCH37 DUB inh	FGF22 binding	E coli growth	ALR inh	Beta2AR agonist
25	COc1cc(/C=C2\SC(c3ccc(C)cc3)=NC2=O)cc(OC)c1O	32	3	2	-2.2	6.7	i	0.71	10	-5
26	CCN(CC)c1cc(C(F)(F)F)nc(-c2ccccn2)n1	4.4	/	/	/	-3.5	/	0.71	0	-4
27	COc1cccc(-c2ccc(SCc3ccccn3)nn2)c1	-0.5	-23*	-15*	-3.0*	4.2	i	0.68	-3	-2
28	Cc1cc[n+](-c2[nH]c(=O)sc2/C=N/N=C(\[O-])c2ccccc2)cc1	-8.6	-1	11	-4.9	/	i	/	/	-1
29	O=C(Nc1nnc(C2CCCC2)s1)C1CCN(S(=O)(=O)c2ccc(Cl)cc2)CC1	-0.9	-4	-5	-5.0	7.0	i	0.72	-1	-4
30	O=C(O)c1ccc(Br)cn1	-0.2	17	14	1.2	3.3	i	0.69	-7	-5

Going on with the list.
No.	Structure	HNF4A DNA FP	Ecoli rRNA inh	Ecoli rRNA inh OD600	Ecoli rRNA inh RFP	UCH37 DUB inh	FGF22 binding	E coli growth	ALR inh	Beta2AR agonist
37	Cn1c(SCC(=O)Nc2ccc(F)cc2F)nnc1-c1cccnc1	2.3	7	14	-2.7	7.0	/	0.74	/	-7
38	O=C(O)CCC(=O)Nc1cccc(-c2csc(-c3ccccc3)n2)c1	1.7	-28	-34	-9.2	2.3	/	0.7	-2	15
39	Cc1ccc(Cn2cc(CN(C)C3CN(Cc4cn(Cc5ccc(C)cc5)nn4)S(=O)(=O)C3)nn2)cc1 (stereo unspecified)	-1.0	-14	-17	4.8	/	i	/	/	/
40	CC(CN1CCCCC1)OC(=O)c1ccccc1Cl (stereo unspecified)	2.2	/	/	/	2.9	/	0.71	0	1
41	Cc1ccccc1NC(=O)Cc1nc(COC(=O)c2ncc(Cl)c(Cl)c2Cl)cs1	3.3	-3	-8	0.3	0.4	i	0.69	/	9
42	CCCN1CCC(=O)N(CCSc2ccccc2)CC1	2.1	8	-1	-12	0.6	i	0.71	-3	12
43	O=C(Nn1cnnc1)c1ccccc1-c1ccccc1	0.4	/	/	/	2.0	/	0.72	10	-4
44	O=C(NCCCN1CCCC1=O)c1cccc(N2CCCC2=O)c1	-0.7	/	/	/	-1.0	/	0.75	-8	0
45	COCCN(C(=O)COC(=O)c1ccc2c(c1)OCCO2)c1c(N)n(Cc2ccccc2)c(=O)[nH]c1=O	-0.7	5	2	-0.9	2.3	/	0.68	-1	2
46	CCC(C)NCCOCCOc1ccc(Br)cc1C (stereo unspecified)	0.6	6	3	-1.7	0.1	i	0.67	-6	20
47	CC1(C)CC(=O)C=C(NCc2cccc(C(F)(F)F)c2)C1	2.8	-2	-4	-0.6	1.1	i	0.67	-1	-2
48	O=C(Nc1ccccc1Sc1ccccc1)c1ccc(F)cc1	3.0	/	/	/	3.6	/	0.67	-5	3
49	O=C(NCCc1c[nH]c2ccccc12)C1CCN(Cc2ccc(Br)cc2)CC1	-0.7	-53	-79	-12	3.1	i	0.63	-2	8
50	CN(C)c1ccc(C=C2C(=O)OC(C)(C)OC2=O)cc1	5.4	25	11	14	0.7	i	0.68	59	3
51	C=CCN(c1ccccc1)S(=O)(=O)c1ccc2c(c1)NC(=O)C(C)S2 (stereo unspecified)	-0.6	-36	-55	-5.2	-0.6	i	0.67	-1	-4
52	COc1ccc(N(C(=O)c2snc(C(N)=O)c2N)C(C(=O)NC2CCCC2)c2ccc(F)cc2)c(OC)c1 (stereo unspecified)	-2.0	1	5	-2.9	-119	/	0.69	-3	4
53	Cc1ccc(C2CC(c3cccs3)=NN2C(=O)c2ccc(Br)o2)cc1 (stereo unspecified)	4.5	/	/	/	-11	/	0.79	-5	1
54	COC(=O)c1sc(N2C(=O)C(O)=C(C(=O)c3ccc(C)o3)C2c2ccc([N+](=O)[O-])cc2)nc1C (stereo unspecified)	3.1	-2	2	2.5	-4.4	i	0.64	70	0
